High-throughput results (PubChem BioAssay)
ClpP mod – qHTS Assay for Activators of ClpP. 340,000 tested, 1.9% active. ATP-dependent Clp protease proteolytic subunit (Bacillus subtilis (strain 168)), P80244. Potency, µM (series often up to 57.5 µM), for the others: top-dose activity change, negative = active. purified B. subtilis ClpP, FRET peptide cleavage, 20 min; active = well fitted falling curve with a large enough effect; inconclusive = small, poorly fitted or top-dose-only effect; inactive = no such curve, though single readings can be large or run the other way; note: potency is the fitted concentration of half-maximal effect; the source files actives as falling curves though it sought activators and does not explain the sign; nearly all actives have a fitted effect of over 65% in size; many hits overshoot -100%
Target sequence (P80244 whole entry, looked up): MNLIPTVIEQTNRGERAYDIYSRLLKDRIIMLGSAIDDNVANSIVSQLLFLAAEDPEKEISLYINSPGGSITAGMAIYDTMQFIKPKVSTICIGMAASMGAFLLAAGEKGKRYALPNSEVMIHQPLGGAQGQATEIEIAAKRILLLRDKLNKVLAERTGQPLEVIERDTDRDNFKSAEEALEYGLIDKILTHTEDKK
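FRET quenching reversal measured ClpP activation: 10 microg/mL B. subtilis ClpP at pH 8 with the FRET-FV decapeptide, read at 430 nm after 320 nm excitation. The 20-min minus 0-min signal was scaled between DMSO/no-enzyme wells and ADEP (5.8 microM final).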
TRPML1 inh – human mucolipin-1 channel inhibition; AID 624415; activity change, negative = inhibition, % (no concentration beside the values); Q9GZU1; 390,000 tested, 0.02% active; TRPML1-inducible cells, Ca2+ dye fluorescence, FDSS; active compounds read low; inhibition of EC80 agonist-evoked calcium signal; in the data active means activity change below about -50%; inconclusive means about -30% to -50%; inactive means above about -30%;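 note: stimulus is agonist 54-4 at its EC80 concentration; % is set by controls: 0 for no effect and ±100 for the full control effect; compound concentration not given in the record; the text of the record puts the active cut at -80%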
Target sequence (Q9GZU1 whole entry, looked up): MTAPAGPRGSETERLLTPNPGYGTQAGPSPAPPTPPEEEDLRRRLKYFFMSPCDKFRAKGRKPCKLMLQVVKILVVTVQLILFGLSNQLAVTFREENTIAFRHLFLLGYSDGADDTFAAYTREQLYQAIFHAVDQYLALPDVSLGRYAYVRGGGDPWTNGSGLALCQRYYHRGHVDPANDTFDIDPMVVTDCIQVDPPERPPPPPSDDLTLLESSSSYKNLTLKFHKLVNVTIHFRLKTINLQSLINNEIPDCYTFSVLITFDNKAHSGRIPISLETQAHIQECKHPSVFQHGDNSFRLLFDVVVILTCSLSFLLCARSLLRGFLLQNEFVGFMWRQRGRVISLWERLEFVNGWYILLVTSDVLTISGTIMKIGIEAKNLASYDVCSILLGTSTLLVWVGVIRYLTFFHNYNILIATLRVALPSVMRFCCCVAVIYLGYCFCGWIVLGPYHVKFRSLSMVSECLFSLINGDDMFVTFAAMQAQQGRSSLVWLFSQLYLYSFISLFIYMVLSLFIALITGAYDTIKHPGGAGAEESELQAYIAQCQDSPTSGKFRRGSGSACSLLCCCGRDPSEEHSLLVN
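Tet-induced TRPML1-DL cells loaded with Ca8 no-wash calcium dye were read kinetically on FDSS. Compound addition was followed by EC80 agonist 54-4 (4 uM final); inhibition was read over 110 s.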
Menin MLL FP FL – displaces fluorescein MLL peptide from human menin; Fluorescence polarization, fluorescein-MLL peptide displacement from menin; FP activity change, % at 61.4 µM; 290,000 tested, under 10 active; AID 1766; inconclusive = falling polarisation curve, or a change in total fluorescence; inactive = total fluorescence flat and polarisation flat or rising; no compound was filed as active; the % refers to the polarisation; negative = inhibition;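 note: % of control where 0% means no effect; inhibitors lower the polarisation; unlabelled MLL peptide was the positive control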
gsp antag – antagonists of gsp mutant (McCune-Albright syndrome); gsp-mutant cells, cAMP HTRF, 30 min; control for the full effect not named in the record; Potency, µM (highest dose often 76.9 µM), without a hit: top-dose activity change, negative = inhibition, usual class: inhibitors; 340,000 tested, 0.4% active; AID 624288; active = falling curve of any shape with a large fitted effect; inconclusive = falling curve, mostly with a smaller effect; inactive = flat or rising curve; cell line not stated here;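 note: intracellular cAMP measured with PDE inhibitor Ro 20-1724 present during compound exposure; potency is the fitted concentration of half-maximal effect; % is set by controls: 0 for no effect and ±100 for the full control effect; nearly all actives have a fitted effect of over 65% in size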
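Measurement of cellular cAMP by homogeneous time-resolved fluorescence following a 30 min compound exposure at 37C. The PDE inhibitor […] was present throughout; the assay buffer was DPBS with 0.05% BSA and 0.005% Tween 20.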
TRPV1 PAM – human TRPV1 potentiation; 320,000 tested, 0.02% active; potentiation, % at 8.33 µM; TRPV1-expressing cells, Fluo-8 calcium influx, capsaicin EC20 potentiation; host cell line not named in the record; control for the full effect not named in the record; active means potentiation above 80%; inconclusive means 30% to 80%; inactive means below 30%; note: 0% is about no effect
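Cells expressing TRPV1 were dye-loaded with Fluo-8 and read kinetically: 10 s baseline, 3 min after compound (agonist portion), then 2 min after EC20 capsaicin (allosteric enhancer portion). Calcium-bound dye fluorescence at 480/520 nm.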
Sfp inh – blocks B. subtilis Sfp PPTase activity; Biochemical Sfp PPTase activity, qHTS; AID 1490; 310,000 tested, 3.5% active; Potency, µM, for inactives: max response, negative = inhibition, most hits filed as inhibitors; Q9F4F7; active = well fitted inhibition curve with a large enough effect; inconclusive = small, poorly fitted or top-dose-only effect, or another doubt; inactive = no such curve, though single readings can be large or run the other way;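 note: the enzyme is Sfp with the accession as filed and its product quenches rhodamine fluorescence; potency is the fitted concentration of half-maximal effect; 0% = enzyme reaction without inhibitor and -100% = no enzyme wells; top concentration of the series not given in the record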
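Fluorescence-quenching assay with 15 nM Sfp, 5 uM rhodamine-CoA and 12.5 uM BHQ-2-labelled ybbR peptide in pH 7.6 Hepes/MgCl2 buffer. Enzyme was pre-incubated with compound for 15 min at room temperature. Rate was taken from the 30-min fluorescence change (525/598 nm).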
gsp ag – agonists of gsp mutant (McCune-Albright syndrome); gsp mutant cells, cAMP HTRF, 30 min; control for the full effect not named in the record; Potency, µM (doses to about 76.9 µM), inactives show top-dose activation (cAMP increase), actives largely listed as activators; 340,000 tested, 0.13% active; AID 624287; active = well fitted activation curve with a large enough effect; inconclusive = small, poorly fitted or top-dose-only effect, or another doubt; inactive = no such curve, though single readings can be large or run the other way; cell line not stated here;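 note: phosphodiesterase inhibitor Ro 20-1724 added with compounds to block cAMP breakdown; potency is the fitted concentration of half-maximal effect; nearly all actives have a fitted effect of over 60% in size; about a fifth of the inactives were tested at one dose only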
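Cells in DMEM/10% FBS with G418 were pretreated with compounds in DMSO plus […] (300 uM stock) for 30 min at 37C. cAMP was measured by HTRF (cAMP-d2 plus anti-cAMP antibody-K) after 30 min at room temperature.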
* marks the source's active call; other numbers are inactive results; ? = inconclusive; . = no result given; & = joins results of further samples; [ ] = another dose, or the depositor's remark.

Every second line gives: ClpP mod, TRPML1 inh, Menin MLL FP FL, gsp antag, TRPV1 PAM, Sfp inh, gsp ag
- COC(=O)C(NC(=O)COc1ccccc1)(Nc1nc2c(s1)CCCC2)C(F)(F)F (stereo not drawn)
  1.5%, 6, 6.2, 2%, 2, 4%, ?
- Cc1nn(-c2ccc(C(=O)O)cc2)c(N)c1-c1ccccc1
  -1.1%, -14, 0.0, -5%, -5, 13%, 13%
- c1ccc(-c2cn3c(n2)SCC3)cc1
  1.0%, 3, -4.2, 1%, 21, -12%, -27%
- Cc1ccc(S(=O)(=O)N(C)CCCC(=O)N2CCCCC2)cc1
  2.2%, 5, 0.1, 3%, -11, 22%, -17%
- Cc1ccc(S(=O)(=O)Nc2cc(C(C)C)c(O)cc2C)cc1
  0.8%, 19, -1.2, -12%, -15, 7%, -2%
- Cc1c(NC(=O)CN2C(=O)c3ccccc3C2=O)c(=O)n(-c2ccccc2)n1C
  1.2%, -6, 4.3, 0%, -7, 6%, -36%[inhibitor]
- CS(=O)(=O)N1CCCC(C(=O)Nc2ccc(Br)cc2F)C1 (stereo not drawn)
  ., 11, 5.7, 6%, 3, -3%, -43%
- Cc1c(N=Cc2ccc(O)c(Br)c2)cccc1[N+](=O)[O-]
  0.8%, -11, -0.7, -5%, 11, -10%, -28%
- COc1ccc(NC(=S)c2ccc(N(C)C)cc2)cc1
  19%, 6, -1.0, 1%, -13, 5%, 10%
- O=C(Nc1ccc2c(c1)OCCO2)c1ccc2ccccc2n1
  ., 3, -1.4, -35%, -6, -15%, 7%[15.4 µM]
- O=C1S/C(=C\c2ccc(O)c([N+](=O)[O-])c2)C(=O)N1Cc1cccc([N+](=O)[O-])c1
  ., 17, -0.1, -72%, -5, -29%, 36%[15.4 µM]
- COc1ccc2nc(SCC(=O)Nc3ccccc3)[nH]c2c1
  0.1%, 3, -2.6, 5%, -2, 4%, 0%
- Cc1ccccc1C(=O)NCC(=O)OCC(=O)NC(C)C1CC2CCC1C2 (stereo not drawn)
  1.0%, 18, ., 1%, -12, ., 16%
- CN(C)C(CNC(=O)c1cccs1)c1cccnc1 (stereo not drawn)
  -0.3%, 4, 3.3, 4%, 8, 8%, -63%[inhibitor]
- O=C(c1cc2cc(Br)cc(Br)c2oc1=O)N1CCOCC1
  ., 8, -0.9, -13%, ?, 10%, -9%
- Cc1ccccc1-n1c(SCC(=O)Nc2ccccc2)nc2nc3c(cc2c1=O)CCCC3
  -9.6%, 5, 5.5, -6%, 13, 14%, -46%
- COc1ccc(OC)c(-n2c(=S)[nH]c3c(sc(=S)n3-c3ccccc3C)c2=O)c1
  ., 19, -0.7, -16%, 5, -5%, 9%[15.4 µM]
- COc1ccccc1CCC(=O)OCC(=O)Nc1c(C)nn(-c2ccccc2)c1C
  2.3%, 6, ., -7%, -6, ., -10%[15.4 µM]
- CCN(CC)S(=O)(=O)c1ccc(N2CCCCC2)c(C(=O)Nc2ccccc2N2CCOCC2)c1
  -5.0%, 9, 1.8, 2%, 5, 10%, -30%
- Cc1cc(C(F)F)nn1CC(=O)Nc1cc([N+](=O)[O-])ccc1F
  -2.8%, 8, 1.9, 6%, 7, 8%, -3%
- COc1ccc(N2C(=O)CSC2c2ccccc2F)c(OC)c1 (stereo not drawn)
  -14%, 46, 4.6, -4%, 3, 13%, -5%[15.4 µM]
- CCc1sc(C(=O)N2CCN(S(C)(=O)=O)CC2)cc1Br
  0.4%, 10, -2.1, 9%, -26, -11%, 2%
- CCOc1ccccc1NC(=O)CSc1nc2c(c(=O)n1C)SC(C)C2 (stereo not drawn)
  2.7%, 18, -2.2, -12%, -6, -19%, -3%
- COc1cc(OC)c(/C=N/n2c(C3CCCCC3)n[nH]c2=S)c(OC)c1
  0.0%, 7, -0.3, 1%, -1, -9%, -2%[15.4 µM]
- Cc1cccc(NCc2ccc(O)c3ncccc23)c1
  ., 2, -3.8, -5%, 2, -5%, -2%
- CCNC(=S)N/N=C/c1ccco1
  0.3%, 0, 4.2, 8%, 4, ?, ?
- Cc1cccc(-n2ncc3c2CCCC3NC(=O)C2CCOCC2)c1C (stereo not drawn)
  -1.2%, 22, ., -5%, 5, 10%, 5%[15.4 µM]
- Cc1ccc(-c2cn3cccnc3n2)cc1
  ., -17, 1.0, -18%, -5, 0%, 22%[15.4 µM]
- FC(F)(F)c1nnc2sc(-c3ccccn3)nn12
  2.4%, 9, -0.7, 19%, -1, -7%, -11%
- CCOc1cccc(-c2nc(C(N)=O)c3[nH]c(=O)n(-c4cccc(Cl)c4)c3n2)c1O
  0.4%, 7, -0.9, -1%, 17, -3%, -1%

Other records follow:
Every second line gives: ClpP mod, TRPML1 inh, Menin MLL FP FL, gsp antag, TRPV1 PAM, Sfp inh, gsp ag
- c1coc(-c2nc3ccccc3s2)c1
  ., 15, ., 7%, ., ., ?
- O=C(c1cccs1)N(c1ccc(F)cc1)C1C=CS(=O)(=O)C1 (stereo not drawn)
  ., 24, 2.1, 11%, -13, 18%, 2%
- COc1cccc(C(=O)Nc2ccc3nc4n(c(=O)c3c2)CCCCC4)c1
  -1.8%&-0.5%, 15&20, ., ., ., ., -85%[inhibitor]
- O=C(COC(=O)c1ccccc1)NCCCCc1ccccc1
  2.0%, 3, ., ., ., ., 37%
- Cc1cc(-c2nnc(CCC(=O)NCc3ccc(OC(F)(F)F)cc3)o2)no1
  1.4%, -1, -2.7, 6%, -1, 7%, -22%
- CCc1ccc(OCC(=O)NNC(=O)c2cc(S(=O)(=O)N(C)C)ccc2N2CCCC2)cc1
  ., 10, ., -1%, 25, ., 4%[15.4 µM]
- C=CCn1c(=O)c2ccccc2n2c(SC(C)C(=O)Nc3nc(-c4ccccc4)cs3)nnc12 (stereo not drawn)
  -8.3%, -18, 0.0, -5%, 12, 12%, -25%
- CC(C)(C)OC(=O)CNC(=O)c1nc[nH]c1C(=O)NCc1ccc(CNC(=O)OC(C)(C)C)cc1
  0.6%, 16, 1.1, -29%, -10, 16%, 5%
- Cc1ccc(CONC(=O)c2ccc([N+](=O)[O-])cc2)cc1
  0.0%, 27, ., 9%, 23, ., -31%[inhibitor]
- C/C(=N\NC(=O)CNC(=O)c1cccc(F)c1)c1ccc2ccccc2c1
  ., 2, ., 1%, 8, 8%, 15%[15.4 µM]
- O=C(COc1ccc([N+](=O)[O-])cc1)NNC(=O)c1cccs1
  -1.5%, 50, 1.3, 13%, 3, 13%, 9%
- CC12CCC3(CO)COC(c4ccccc4O1)C2C3 (stereo not drawn)
  -2.6%, -4, 0.6, -9%, -2, 7%, 2%
- COC(=O)c1cc(C(=O)OC)cc(-n2c(C)cc(C(=O)COC(=O)CNS(=O)(=O)c3ccc(C)cc3)c2C)c1
  0.4%, 11, 2.2, -26%, -32, 15%, 13%[15.4 µM]
- O=c1c2ccccc2nc(-c2ccc(Br)cc2)n1Cc1ccccc1
  -1.6%, 6, 4.9, -19%, 1, 6%, -46%[inhibitor]
- CCN(CC)CCCC(C)NC(=O)c1cccc(S(=O)(=O)N2CCc3ccccc32)c1 (stereo not drawn)
  -2.3%, 8, 0.1, 6%, 3, 2%, 0%[15.4 µM]
- CCCCCCn1cnc2c(c1=O)c1nc3ccccc3nc1n2Cc1cccs1
  -6.2%, 0, -0.8, 6%, 9, 9%, ?
- O=C(COC(=O)c1ccc(O)cc1)NCCC1=CCCCC1
  -2.4%, 15, -0.3, -8%, -4, 24%, ?
- Cc1ccc(NC(=O)C=NOCC(=O)Nc2cc(C)cc(C)c2)cc1
  -0.2%, -29, ., 4%, ., ., -6%[15.4 µM]
- O=C(OCc1cn([C@H]2CN(Cc3cccs3)[C@@H](c3ccc(Cl)cc3)C[C@@H]2O)nn1)c1ccccc1
  -1.6%, -2, ., ., ., ., 6%
- CCOC(=O)N1CCN(c2ccc(C(=O)c3cccc(F)c3)cc2)CC1
  1.3%, -3, 2.8, -31%, -8, -10%, 1%

By substructure, those above containing an aryl methoxy group
Every second line gives: ClpP mod, TRPML1 inh, Menin MLL FP FL, gsp antag, TRPV1 PAM, Sfp inh, gsp ag
- COc1ccc(NC(=S)c2ccc(N(C)C)cc2)cc1
  19%, 6, -1.0, 1%, -13, 5%, 10%
- COc1ccc2nc(SCC(=O)Nc3ccccc3)[nH]c2c1
  0.1%, 3, -2.6, 5%, -2, 4%, 0%
- COc1ccc(OC)c(-n2c(=S)[nH]c3c(sc(=S)n3-c3ccccc3C)c2=O)c1
  ., 19, -0.7, -16%, 5, -5%, 9%[15.4 µM]
- COc1ccccc1CCC(=O)OCC(=O)Nc1c(C)nn(-c2ccccc2)c1C
  2.3%, 6, ., -7%, -6, ., -10%[15.4 µM]
- COc1ccc(N2C(=O)CSC2c2ccccc2F)c(OC)c1 (stereo not drawn)
  -14%, 46, 4.6, -4%, 3, 13%, -5%[15.4 µM]
- COc1cc(OC)c(/C=N/n2c(C3CCCCC3)n[nH]c2=S)c(OC)c1
  0.0%, 7, -0.3, 1%, -1, -9%, -2%[15.4 µM]
- COc1cccc(C(=O)Nc2ccc3nc4n(c(=O)c3c2)CCCCC4)c1
  -1.8%&-0.5%, 15&20, ., ., ., ., -85%[inhibitor]
